Screens from PubChem.
AID923 – qHTS Assay for Allosteric/Competitive Inhibitors of Caspase-1: Spectroscopic Profiling in AFC Spectral Region; compound fluorescence, AFC spectral region (405/520 nm); almost no hit is shown here; Potency, µM (highest dose often 57.5 µM), without a hit: top-dose fluorescence increase, most hits filed as activators; 75,000 tested, 1.1% active; AID 923, 2007; active = well fitted activation curve with a large enough effect; inconclusive = small, poorly fitted or top-dose-only effect;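 also: potency is read from the fitted curve at half-maximal effect; 0% is about no effect; scaled to a free AFC standard on each plate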
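Titrations up to 57 uM read every 20 sec for 3 min (405/520 nm) with 50 nM caspase 1 and 5 uM Ac-WEHD-AFC, pH 7.5 HEPES buffer. Fluorescence-vs-time intercept gave baseline, scaled against on-plate AFC standard.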
Resorufin autofl – compound fluoresces in the resorufin spectral region; Compound fluorescence, resorufin region 547/598 nm, buffer; active compounds read high; AID 588; max dye-equivalent concentration, M; 59,000 tested, 0.04% active; active = above 10 nM dye equivalent; inconclusive = 1 to 10 nM; inactive = 1 nM or less; a few of its hits are not listed in these tables; also: highest value over a series up to 38 µM
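Compounds in 100 mM Tris buffer, pH 8.0, incubated 15 min at room temperature, then read with 547 nm excitation and 598 nm emission filters. Fluorescence was converted to dye-equivalent concentration using an on-plate six-point resorufin standard curve.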
A647 autofl – compound autofluorescence in A647 spectral region. AID 592. Compound fluorescence, A647 channel (570/671 nm), Tris buffer. 59,000 tested, under 10 active. max dye-equivalent concentration, M; active means above 1 µM dye equivalent; inconclusive means 0.1 to 1 µM; inactive means 0.1 µM or less;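 also: values scaled relative to a standard on each plate; highest value over a series up to 38 µM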
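Buffer was dispensed, compounds and Alexa 647 standards were pin-transferred, and plates sat 15 min at room temperature. Intensity at 570/671 nm was then converted to dye-equivalent concentration using the plate's A647 standard curve.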
TSHR ag – activates the human thyroid stimulating hormone receptor. HEK293-CNG-TSHR cells (CNG channel as cAMP sensor), membrane potential dye, cAMP. 73,000 tested, 0.48% active. Potency, µM (highest dose often 57.1 µM), for inactives: at the top dose activation, usual class: activators. AID 926; active = well fitted activation curve of enough size with the parental cells flat; inconclusive = any curve in the parental cells; inactive = parental cells flat and receptor cells flat or falling; also: potency is read from the fitted curve at half-maximal effect; % of control where 0% means no effect; weak receptor curves with flat parental cells got no call and are not listed
Target sequence (P16473 whole entry, looked up): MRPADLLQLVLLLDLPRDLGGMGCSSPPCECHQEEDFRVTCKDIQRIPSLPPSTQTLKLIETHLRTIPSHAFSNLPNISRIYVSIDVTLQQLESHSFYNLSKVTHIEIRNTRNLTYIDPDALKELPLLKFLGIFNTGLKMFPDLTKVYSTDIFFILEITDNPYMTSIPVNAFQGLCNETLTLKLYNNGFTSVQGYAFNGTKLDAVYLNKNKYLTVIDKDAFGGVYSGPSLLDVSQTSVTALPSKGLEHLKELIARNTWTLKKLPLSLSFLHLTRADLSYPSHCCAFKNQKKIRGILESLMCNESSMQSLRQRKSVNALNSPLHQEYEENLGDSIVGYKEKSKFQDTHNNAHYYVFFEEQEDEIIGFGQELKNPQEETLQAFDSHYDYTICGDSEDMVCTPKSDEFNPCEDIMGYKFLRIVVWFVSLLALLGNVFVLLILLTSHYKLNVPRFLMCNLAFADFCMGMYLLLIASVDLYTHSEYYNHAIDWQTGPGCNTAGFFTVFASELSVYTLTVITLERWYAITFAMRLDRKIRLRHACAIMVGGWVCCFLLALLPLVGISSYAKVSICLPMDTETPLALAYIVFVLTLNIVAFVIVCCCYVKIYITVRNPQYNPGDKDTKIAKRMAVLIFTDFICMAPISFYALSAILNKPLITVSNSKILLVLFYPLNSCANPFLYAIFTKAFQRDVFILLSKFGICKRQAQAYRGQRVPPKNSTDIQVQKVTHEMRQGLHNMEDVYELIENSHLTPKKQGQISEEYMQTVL
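HEK 293 cells stably expressing TSHR and a modified CNG channel, with CNG-only parental cells as counterscreen, were preloaded 60 min at room temperature with membrane potential dye containing 100 uM RO 20-1724. Compound exposure was 30 min, and depolarization was read as fluorescence at 590 nm.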
A488 fluor – A488 region autofluorescence; compound autofluorescence, A488 spectral region, dye equivalency; active compounds read high; max dye equivalency, M; 59,000 tested, 0.1% active; AID 591; active = above 10 nM dye equivalent; inconclusive = 1 to 10 nM; inactive = 1 nM or less; about half of its hits are not listed in these tables;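 also: highest value over a series up to 38 µM; compound alone in buffer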
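Readout is A488 dye-equivalent concentration, calibrated by a per-plate six-point Alexa 488 series. Compounds in 100 mM Tris buffer pH 8.0 were incubated 15 min at room temperature. Plates were imaged using 480 nm excitation/540 nm emission filters.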
An asterisk follows results filed as active; i = inactive; ? = inconclusive; nt = no result given; & = joins results of further samples; [ ] = another dose, or the depositor's remark.

SMILES	AID923	Resorufin autofl	A647 autofl	TSHR ag	A488 fluor
COc1ccc(C(=O)NCC(c2cccnc2)N2CCN(c3ccccc3)CC2)cc1OC (configuration not stated)	-4.2%	nt	nt	0%	nt
Cc1nn(C(=O)c2ccoc2C)c(N)c1-c1ccccc1	-1.2%	nt	nt	9%	nt
Cc1cc(N2C(=O)c3ccc(C(=O)NCc4ccccc4)cc3C2=O)no1	0.7%	i	1e-09	-2%	i
Cn1c(=O)c2c(nc(SCCNS(=O)(=O)c3ccccc3)n2C)n(C)c1=O	3.2%	nt	nt	11%	nt
COc1ccc(N(C)C(=O)c2ccc3snnc3c2)cc1	0.3%	nt	nt	7%	nt
Cc1nn(Cc2ccc(C(=O)N3c4ccc(F)cc4CCC3C)o2)c(C)c1Br (configuration not stated)	-0.4%	i	1.1e-08	18%	i
O=C1N(CC(=O)N2CCc3ccccc32)CCN1Cc1ccc(Cl)cc1	-0.7%	i	1e-09	1%	i
CC(=O)N1CCN(C(=O)CCc2nc3sc4c(c3c(=O)[nH]2)CCCC4)CC1	-0.6%	i	4.7e-08	-10%	i
Cc1c(Cl)cccc1NC(=O)CSCC(N)=O	-1.7%	i	2.3e-08	-4%	i
CN1CCN(c2ncc3nc(-c4cc(F)cc(F)c4)c(=O)n(-c4ccccc4)c3n2)CC1	0.0%	i	3.5e-09	?	i
Cc1cc2ccccc2cc(C)c1=O	nt	i	3.6e-09	nt	i
CCOC(=O)C1=C(C)NC2=C(C(=O)CC(C)(C)C2)C1c1ccc(N(C)C)cc1 (configuration not stated)	12%	i	1e-09	0%	i
Cc1ccc(CN2CC34C=CC(O3)C(C(=O)NCc3ccc5c(c3)OCO5)C4C2=O)cc1 (configuration not stated)	0.5%	i	2e-08	18%	i
Cc1cc(NC(=O)CSc2ncn(-c3ccccc3)n2)no1	-0.7%	i	5.8e-09	5%	i
Cc1ccc(S(=O)(=O)NC2OC(=O)C(Cl)=C2Cl)cc1 (configuration not stated)	-0.4%	nt	nt	-13%	nt
COC(=O)C(Cc1ccccc1)NC(=O)CSc1nc(C)cc(=O)[nH]1 (configuration not stated)	-2.0%	nt	nt	-4%	nt
COc1ccc(C(CNC(=O)c2ccc(S(=O)(=O)N3CCOCC3)cc2)N2CCCCC2)cc1 (configuration not stated)	2.3%	i	3.3e-08	-1%	i
O=C1CC(c2ccco2)CC2=C1C(c1ccccc1)n1nc(C(F)(F)F)nc1N2 (configuration not stated)	3.5%	i	1e-09	0.63µM*	i
COc1cccc(NS(=O)(=O)c2ccc3[nH]cc(C(=O)NC4CC4)c(=O)c3c2)c1	-2.0%	i	4.9e-09	-8%	i
COc1cc(NS(=O)(=O)c2ccc(N)cc2)ncn1	-4.6%	i	1.9e-09&4.9e-09&1.8e-09	27%[25.6 µM]	i
Cc1onc(-c2c(F)cccc2Cl)c1C(=O)N1CCN(S(C)(=O)=O)CC1	1.1%	i	4e-08	2%	i
Cc1ccc(-c2cc(C(=O)NCc3ccco3)c3ccccc3n2)o1	0.0%	i	3e-08	nt	i
Nc1ccc(N=Nc2ccccc2)c(N)n1	-0.8%	i	1.9e-09	?	i
Cc1cc(C(=O)N2CCN(c3ncccn3)CC2)sc1-c1ccccc1	-1.1%	i	1e-09	?	i
CN(Cc1ccco1)C(=O)Cn1c(=O)oc2cc(S(=O)(=O)NCc3ccccc3)ccc21	-0.6%	nt	nt	25µM*	nt
COc1cc(NS(=O)(=O)c2ccc(OC)c(C)c2C)c(OC)cc1Cl	-1.1%	i	5.5e-08	?	i
O=C(c1ccc(N2C(=O)CCC2=O)cc1)N1CCOCC1	1.6%	nt	nt	-1%	nt
CC1(C)CC2CC(C)(CN2S(=O)(=O)c2ccc(N)cc2)C1 (configuration not stated)	-0.6%	nt	nt	25µM*	nt
O=C(C(NS(=O)(=O)c1cccc2nsnc12)c1ccccc1)N1CCN(c2ccccn2)CC1 (configuration not stated)	0.3%	i	1e-09	15%	i
CCOc1cccc(-n2nnnc2-c2ccc(OC)cc2)c1	2.0%	i	6.8e-09	?	i
[N-]=[N+]=CC(=O)C(Cc1ccccc1)N1C(=O)c2ccccc2C1=O (configuration not stated)	-0.1%	i	2.9e-09	-9%	i
Nc1nc(CN2CCN(c3ccccc3F)CC2)nc(Nc2ccccc2)n1	-1.5%	i	3.7e-09	4%	i
O=C(Nc1ccc(Cl)cc1)OCCn1nnnc1C(c1ccccc1)N1CCOCC1 (configuration not stated)	-0.3%	i	7e-09	0%	i
CC[C@@H](CS(=O)(=O)O)[N+](=O)[O-]	8.2%[11.5 µM]	i	3.3e-08	-5%[11.4 µM]	i
CCOC(=O)C(C)Sc1ncnc2nc[nH]c12 (configuration not stated)	-1.3%	i	3e-08	4%[11.4 µM]	i
O=C(CSc1nnc(CNc2ccccc2)o1)N1CCc2ccccc21	-0.4%	i	2.8e-08	?	i
Cn1c(SC/C=C/c2ccccc2)nnc1-c1cccs1	-0.8%	i	1e-09	?	i
CN1CCc2c(sc(/N=C/c3cccs3)c2C(N)=O)C1	?	i	1.6e-09	-9%	i
CCCN1C(=O)c2ccc(C(=O)NC3CCCCC3)cc2C1=O	-0.1%	i	1.5e-08	7%	i
CNC(=O)CCc1nc(-c2ccc(C(C)(C)C)cc2)no1	2.8%	i	8.5e-09	9%	i
Nc1ncnc2c1ncn2[C@@H]1O[C@@H](C(=O)NC2CC2)[C@H](O)[C@@H]1O	-1.3%	i	8.7e-09	?	i
Cc1cc(-c2ccccc2)nc(SCc2ccc(C(=O)O)o2)n1	-0.7%	i	3.9e-09	5%	i
Clc1ccc(-c2nn3cnnc3s2)c(Cl)c1	1.9%	i	1.7e-09	27%	i
COc1ccc(OC)c(NC(=O)C2CCCNC2=O)c1 (configuration not stated)	-1.8%	nt	nt	-3%[11.4 µM]	nt
CC(=O)C(Sc1ccc2nnc(-c3ccc(F)cc3)n2n1)C(C)=O	0.4%	nt	nt	2%	nt

Complete entries as entered above. Order of values: AID923	Resorufin autofl	A647 autofl	TSHR ag	A488 fluor
`CCOC(=O)C(C)Sc1ncnc2nc[nH]c12` (configuration not stated) across the screens: -1.3%	i	3e-08	4%[11.4 µM]	i
`O=C(Nc1ccc(Cl)cc1)OCCn1nnnc1C(c1ccccc1)N1CCOCC1` (configuration not stated) across the screens: -0.3%	i	7e-09	0%	i
`Nc1nc(CN2CCN(c3ccccc3F)CC2)nc(Nc2ccccc2)n1` across the screens: -1.5%	i	3.7e-09	4%	i
`[N-]=[N+]=CC(=O)C(Cc1ccccc1)N1C(=O)c2ccccc2C1=O` (configuration not stated) across the screens: -0.1%	i	2.9e-09	-9%	i
`CC(=O)C(Sc1ccc2nnc(-c3ccc(F)cc3)n2n1)C(C)=O` across the screens: 0.4%	nt	nt	2%	nt

The listing continues.
SMILES	AID923	Resorufin autofl	A647 autofl	TSHR ag	A488 fluor
CCCCCCCC/C=C\CCCCCCCC(=O)NCCc1ccc(O)c(O)c1	-1.5%	i	2e-08	-11%	i
CCOC(=O)N1CCC(NC(=O)Cn2ncc3c2-c2cc(C)ccc2OC3)CC1	-1.1%	nt	nt	2%	nt
O=C(O)Cn1ncc2c1-c1ccoc1CC2	4.2%	nt	nt	11%	nt
Cc1ccc(-c2nc(C#N)c(NCCN3CCCCC3)o2)cc1	0.8%	nt	nt	6%	nt
Oc1ccc(Br)cc1/C=N/n1cnc2ccccc21	16%	i	5.6e-08	-8%	i
Cc1cc(C)n(-c2ccc(F)cc2)c(=O)c1C(=O)O	-0.7%	i	3.9e-08	-6%	i
Cn1c(=O)[nH]c(=O)c2c1nc(Br)n2CCCSc1nc2ccccc2o1	5.2%	i	1e-09	?	i
Cc1nc2ccc(S(=O)(=O)NC(C(=O)N3CCC(C)CC3)C(C)C)cc2s1 (configuration not stated)	-2.6%	nt	nt	20%	nt
CCOC(=O)Cn1c(=O)oc2cc(S(=O)(=O)NCC3CCCO3)ccc21 (configuration not stated)	-3.6%	nt	nt	2%[11.4 µM]	nt
CCOc1cc(CN2CCCCC2)ccc1OC	-1.1%	i	1e-09	-7%	i
O=C(O)CCC(O)=C1S(=O)(=O)OCCOS1(=O)=O	0.8%[11.5 µM]	i	1e-09	-1%[11.4 µM]	i
CCOc1ccccc1Nc1nc(N)nc(CSc2nccc(C)n2)n1	-0.4%	i	8.9e-09	?	i
CCCCOC(=O)n1c(=O)oc2ccccc21	-2.0%	i	3.3e-09	5%	i
Cc1ccc(-n2c3c(cc(C(=O)N4CCN(C)CC4)c2=O)C(=O)CC(C)(C)C3)cc1	3.1%	i	6.8e-09	-2%	i
COc1ccc(CNC(=O)c2cccc3c2C(=O)N(Cc2cccnc2)C3)cc1	-1.4%	i	1e-08	1%	i
COc1cc(C(=O)CSc2nncn2C)cc(OC)c1OC	-0.2%	i	2.2e-08	8%	i
Cc1cc2oc(=O)cc(CN3CCCCC3)c2cc1C(C)C	0.5%	i	8.3e-09	?	i
CCOCCCNC(=O)C(Cc1ccccc1)NC(=O)c1ccco1 (configuration not stated)	-0.1%	i	2e-08	-1%	i
CC1=C(C(=O)N2CCCCC2)C(c2cccs2)NC(=O)N1 (configuration not stated)	-1.6%	nt	nt	0%	nt
COc1ccc(N2CCN(C(=O)c3ccc(N4C(=O)NC5CC4(C)Oc4ccccc45)cc3)CC2)cc1 (configuration not stated)	-0.1%	i	1.2e-08	-2%	i
C=CCNc1ncnc2ccccc12	1.0%	i	8.1e-09	1%	i
COC(=O)c1ccc2c(c1)C(=O)N(C1CCCCC1)C2=O	-2.7%	i	5e-09	-9%	i
COC(=O)Cn1cc(C(=O)C2CC2)c2ccccc21	0.2%	i	3.1e-09	12%	i
CN1CCN(C(=O)c2nc3ccc(Cl)cc3[nH]2)CC1	1.2%	nt	nt	5%	nt
O=C(NCCN1CCCC1)c1ccc(Cc2nc3ccccc3[nH]2)cc1	1.0%	nt	nt	-2%	nt
O=C(Cn1nnc(-c2ccncc2)n1)NCCc1ccccc1	1.5%	i	3.3e-08	-10%	i
O=C(O)c1ccc(N2C(=O)C3ON(c4ccccc4)C(c4ccccc4F)C3C2=O)cc1 (configuration not stated)	3.2%	i	2.3e-08	3%	i
CCCCC(CCC(=O)Nc1ccc(C(=O)OC)cc1)C(=O)O (configuration not stated)	nt	i	1.5e-08	nt	i
Cc1cccc(N2C(N)=NC(N)=NC23CCCCC3)c1	1.6%	i	3.1e-08	?	i
Cc1ccc2c(c1)nnn2C1CCN(CC(=O)c2ccc(Cl)cc2)CC1	2.6%	i	6.3e-09	2%	i

Retrieved one by one from the list above:
SMILES	AID923	Resorufin autofl	A647 autofl	TSHR ag	A488 fluor
Clc1ccc(-c2nn3cnnc3s2)c(Cl)c1	1.9%	i	1.7e-09	27%	i
Cc1cc2oc(=O)cc(CN3CCCCC3)c2cc1C(C)C	0.5%	i	8.3e-09	?	i

Later entries:
SMILES	AID923	Resorufin autofl	A647 autofl	TSHR ag	A488 fluor
COc1ccccc1NC(=O)Cn1cnc2c(oc3ccccc32)c1=O	-2.2%	nt	nt	-5%	nt
O=C(Nc1nccs1)C1CCCN1S(=O)(=O)c1cccc2cccnc12 (configuration not stated)	2.7%	nt	nt	-1%	nt
c1ccc(Oc2nc(Oc3ccccc3)nc(N3CCOCC3)n2)cc1	-0.5%	nt	nt	23%	nt
Cc1ccc(C2(c3ccc(C)cc3)NC(=O)N(Cc3c(C)noc3C)C2=O)cc1	-3.1%	i	5.7e-09	?	i
CS(=O)(=O)N(CC(=O)NCc1ccco1)c1cc(C(F)(F)F)ccc1Cl	0.5%	nt	nt	2%[11.4 µM]	nt
N=C(N)c1ccc(N)cc1	-3.2%	i	6.5e-08	6%	i
CCC(C)[C@H](NC(=O)NCc1cccs1)C(=O)OC (some centres not stated)	0.9%	i	2.1e-08	1%	i
Cc1cccc2nc(CSc3nncn3-c3ccccc3)cn12	1.2%	i	4e-09	29%	i
COc1ccc(NC(=O)C2CCN(c3nc(C)nc4c3CCC4)CC2)cc1	-0.7%	i	3.3e-08	?	i

These rows are one share of the data; rates above refer to the full screens.
